# BasE inh: BasE siderophore biosynthesis inhibition. purified BasE, fluorescence polarization binding displacement. inhibition, % (no concentration beside the values). 84,000 tested, 0.1% active. AID 485350;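 active = both replicates above 25% with normal brightness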;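 also: 0% = negative plate control signal and 100% = positive plate control signal; stock transfer was 100 nL into about 30 µL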
# LANA-nucl inh: LANA-nucleosome interaction inhibition | 51,000 tested, 0.3% active | FITC-LANA1-23 / chicken nucleosome fluorescence polarization; stronger effect = lower value | z-score (test concentration not listed);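 active = both repeat wells score below -2 in polarization z-score versus plate sample wells, excluding overly bright wells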;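 also: 100 nL library stock added to about 30 µL; numbers are from one replicate; some results filed as inactive read as strong as hits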
#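 System – purified chicken nucleosomes with FITC-labelled LANA N-terminal peptide (1-23) · Amount – 240 nM purified chicken nucleosomes (480 nM peptide binding sites), final · Also added – 50 nM FITC-LANA1-23 probe · Medium – TEN-BT buffer, pH 7.5 · Incubation – compound with peptide–nucleosome mix 10–45 min at room temperature · Detection – fluorescence polarization, ex 480 nm, em 535 nm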
# Numbers without * were called inactive; / = no result given; & = joins results of further samples.
SMILES,BasE inh,LANA-nucl inh
CCc1ccc(NC(=O)C(C)N2CCN(S(=O)(=O)c3ccc(C)cc3C)CC2)cc1 (configuration not stated),0.0,/
COc1ccc(C(=O)n2cnc3ccccc32)cc1OC,-3.2,-0.293
O=C(COc1ccccc1O)NCCN1CCOCC1,5.7,0.661
Cc1ccc(CN2CCC(CNC(=O)Cn3c(=O)oc4ccccc43)CC2)cc1,3.4,-0.0655
CN1C(=O)CC(C(=O)NCCc2ccccc2)SC1=Nc1ccc(I)cc1 (configuration not stated),3.2,/
O=C(N=Nc1c(O)n(Cc2ccccc2)c2ccccc12)c1ccccc1O,5.3,-0.314
COc1ccc(NC(=O)Cn2c(C(F)(F)F)nc3ccccc32)cc1,/,-0.427
O=C(NC(=O)N1CCOCC1)c1cc(Br)cc(Br)c1,2.1,/
CN(C)S(=O)(=O)c1ccc(C(=O)OCc2nc(-c3ccccc3)no2)cc1,0.1,/
Cc1nn(C)c2sc(C(=O)NN)cc12,1.3,-0.262
CC(C)C(=O)Nc1cccc(NC(=S)NC(=O)/C=C/c2ccco2)c1,-8.5,1.06
O=c1cnnc(NCCN2CCOCC2)[nH]1,-1.2,-0.928
CCCCN(CC)S(=O)(=O)c1ccc(C(=O)Nc2ccccc2-c2nc3ccccc3[nH]2)cc1,1.1,/
NC1=NC(c2ccccc2)n2c(nc(=O)c3ccccc32)N1 (configuration not stated),1.0,-0.959
O=C(Cc1ccccc1)O/N=C/c1ccc2c(c1)OCO2,1.4,-0.808
O=c1cc(CNc2ccc(S(=O)(=O)N3CCCC3)cc2)c2cc3c(cc2o1)CCC3,2.7,/
COC(=O)c1cccc(N=C2N=C(N)c3ccccc32)c1,3.3,/
COc1ccccc1NC(=O)NC1(C(=O)N2CCCCC2)CCCCC1,0.1,-0.197
CCOc1cc(C(=O)Nc2ccncc2)cc(OCC)c1OCC,-2.6,-1.06
Cc1nn(-c2ccc(Cl)cc2)c2sc(C(=O)NCCCN3CCCC3=O)cc12,1.2,/
Cc1ccc(NCc2nc3ccccc3n2C)cc1,-10.1,-0.117
COC(=O)c1ccc(NS(=O)(=O)N(C)C)cc1,-3.5,0.148
CSc1nc2ccsc2c(=O)n1-c1ccccc1,/,0.206
COc1ccc(-c2nc3scc(CCN)n3n2)cc1,-1.7,0.097
CCOC(=O)N1CCN(C(=O)COC(=O)c2ccc3c(c2)NC(=O)CS3)CC1,2.0,/
CCN(CC)C(=O)NC1CCCCCC1,1.3,-1.42
Cc1ccc(SCC(=O)N2CC(C)CC(C)C2)cc1 (configuration not stated),0.9,-0.454
O=C(COc1ccc(Cl)cc1Cl)Nc1ccc2nc3n(c(=O)c2c1)CCCC3,-2.6,-0.495
Cn1nc(-c2ccc(S(=O)(=O)N3CCCN(C(=O)OC(C)(C)C)CC3)s2)cc1C(F)(F)F,0.6,/
Cc1ccc(C(=O)C(C)OC(=O)C2CC(=O)N(C3CCCCC3)C2)cc1 (configuration not stated),1.0,0.0125
CCN(C(C)=O)c1nc(-c2ccc(Br)cc2)cs1,-0.1,-0.182
c1ccc2c(c1)ncn1nc(-c3cc(C4CC4)[nH]n3)nc21,0.1,-2.13
Nc1ccccc1C(=O)Cc1ccccc1,5.4,0.484
C=C(C)c1cccc(C(C)(C)NC(=O)N2CCC(C(=O)OCC)CC2)c1,1.6,-0.18
O=C(Cc1ccccc1)N1CCC(O)(c2cccnc2)CC1,-0.3,-1.52
CN(C)/C=C1\S/C(=N\S(=O)(=O)c2cccs2)N(c2ccccc2)C1=O,0.6,/
O=C(CN1CCc2ccccc21)NC(=O)NCc1ccco1,-3.8,/
COc1ccc(N2CCN(C3c4ccccc4CC3NS(=O)(=O)c3ccccc3)CC2)cc1 (configuration not stated),2.3,/
CCOC(=O)c1cnc2c(C)c(Cl)ccc2c1Nc1cc(C)ccc1OC,0.6,/
CC(C)C(=O)N1CCN(c2ccc(NC(=O)Cc3ccccc3)cc2Cl)CC1,1.9,-0.637
CC1(C)CC2(CCO1)NN=C(c1ccccc1)S2 (configuration not stated),1.1,-0.742
CN1C(c2ccccc2)=Nc2cccc3cccc1c23,1.4,/
O=c1cc2c3c(cc(O)cc3o1)OC2,3.8,0.443
CCc1cc2c(CN(C)Cc3ccccc3F)cc(=O)oc2cc1O,1.8,/
COc1cc(C2OC(=O)c3c2ccc(OC)c3OC)ccc1O (configuration not stated),14.2,/
COCCn1c(=S)[nH]c2sc(C)c(C)c2c1=O,4.4,/
CO/N=C/c1c(N(C(C)C)C(C)C)nc2ccc(C)cn2c1=O,-0.7,1.84
Cc1cc2ccc(C)c(C)c2nc1SCC#N,0.9,0.758
CCc1ccc2oc(-c3ccccc3)cc(=NCc3cccnc3)c2c1,-4.7,/
CC(C)CNC(=O)COc1ccc(Cl)cc1Cl,-0.9,-0.163
# Next section
SMILES,BasE inh,LANA-nucl inh
CCCCC(=O)N=c1sc2cc3c(cc2n1CCC)OCO3,0.2,-0.188
O=C(Oc1coc(CSc2ncccn2)cc1=O)c1ccccc1,-1.9,1.3
OCC1CCCN(Cc2ccc(-c3ccccc3)cc2)C1 (configuration not stated),-1.0,0.396
O=C(Cc1c(F)cccc1Cl)OCc1ncc(-c2ccccc2)o1,-0.3,/
Cc1cccc2c1NC(=O)C21OCCO1,-4.7,1.97
COC(=O)C1=CN(C23CC4CC(CC(C4)C2)C3)C=C(C(=O)OC)C1c1ccc(F)cc1,3.1,/
Cc1sc2nc(CSc3nc4ccccc4n3CC(C)C)[nH]c(=O)c2c1C,-2.5,/
Cc1noc(C)c1C(=O)NCc1ccccc1F,2.9,-0.81
CN1/C(=C\C(=O)c2nc(S(C)(=O)=O)ncc2Cl)C(C)(C)c2ccccc21,1.4,/
Cc1ccc(N=C2C(=O)N(CN3CCCC(C)C3)c3ccccc32)cc1 (configuration not stated),0.4,-0.38
Cc1cc(NC(=O)c2ccco2)ccc1NC(=O)Cc1ccccc1,-1.0,0.631
NC(=O)CN1C(=O)CCS(=O)(=O)c2ccccc21,-0.9,0.745
CNC(=O)CC(=O)NC,-1.8,1.39
COc1ccc2oc(=O)cc(CN(Cc3ccco3)C3CCCC(C)C3C)c2c1 (configuration not stated),0.1,0.871
CC1(C)OC(=O)C(=CNNc2ccc(C(F)(F)F)cc2)C(=O)O1,-2.8,0.097
CCOCCn1c(=NC(=O)C2CC2)sc2cc(S(C)(=O)=O)ccc21,-0.8,0.342
Cc1ccc(NC(=O)c2sc3nc(-c4ccccc4)cn3c2C)cc1,1.6,0.4
CC(Cc1n[nH]c(=S)o1)c1ccccc1 (configuration not stated),-0.8,/
CC(Cc1ccc(O)c(O)c1)(NN)C(=O)O (configuration not stated),/,-0.806
CCOC(=O)c1nn(-c2ccc(C)cc2)c(=O)cc1OCC(=O)NCc1ccco1,-2.8,1
Cc1ccc(Cc2cnc(NC(=O)/C(C#N)=C\c3ccc(-c4ccc(C)cc4)o3)s2)cc1,-1.1,0.954
CC(C)N(CC(N)=O)C(=O)c1ccc2c(c1)NC(=O)CS2,0.7,/
Cn1ncc2c(NCc3ccccc3)nc(N3CCN(CCO)CC3)nc21,0.0,1.86
CCOC(=O)c1nnn2c3ccccc3c(=O)n(C)c12,1.1,/
COC(=O)Cn1cnc2c(cnn2-c2ccc(OC)cc2)c1=O,-0.1,-0.27
C=CCNC(=O)CCN1c2ccccc2Sc2ccccc21,0.4,/
CC1CCCC(C)N1C(=O)c1cc2cccnc2n(Cc2ccccc2)c1=O (configuration not stated),-0.5,0.238
CCOC(=O)c1cc2c(=O)n3cc(C)ccc3nc2n(Cc2ccco2)c1=N,2.5,/
N/C(=N\OC(=O)c1ccc2ncsc2c1)c1ccccc1,0.3,-0.15
O=C(C1Cc2ccccc2CN1C(=O)c1ccco1)N1CCc2ccccc21 (configuration not stated),-3.1,/
CCc1cccc2c(C#N)cn(CC(=O)N(CC)CC)c12,1.5,0.545
C=C(CC)C(=O)c1ccc(OCC(=O)O)c(Cl)c1Cl,-0.4&0.2,-0.298&-0.45&-0.97&0.173
CC(=O)N1c2ccccc2NC(=O)C1CC(=O)Nc1cccc(C)c1 (configuration not stated),-0.6,2.28
NC(C(=O)O)c1ccc(CCCC(=O)O)s1 (configuration not stated),1.6,/
CCOc1ccc2[nH]c(=O)c(CN(CCOC)C(=O)Nc3ccccc3C)cc2c1,19.4,0.224
N#Cc1ccccc1Cn1c(=O)n(CCCC(=O)NC2CCN(Cc3ccccc3)CC2)c(=O)c2ccccc21,-3.0,1.38
c1ccc(-c2nc(Sc3ncnc4c3cnn4-c3ccccc3)n[nH]2)cc1,1.8,/
Nc1ncnc2c1cnn2Cc1ccccc1,1.3,0.233
N#CCCN(Cc1cccs1)C(=O)Nc1ccc2c(c1)CCO2,/,-0.704
NNC(=O)c1cc2ccccc2cc1O,3.2,0.097
COc1ccc2cc(CN(Cc3nnnn3Cc3ccccc3)C3CCCC3)c(=O)[nH]c2c1,-0.2,-0.494
N#Cc1c(SCC(=O)Nc2nccs2)nc(N2CCOCC2)c2c1CCCC2,-0.5,-0.0045
N#Cc1cc(C#N)c(SCC(=O)N2CC(=O)Nc3ccccc32)nc1N,-5.4,/
CC1CC(O)NN=C1c1ccc2nc(COc3ccccc3O)[nH]c2c1 (configuration not stated),3.8,/
COc1cccc(C(=O)Nc2cccc(N=C(N)CCC(=O)O)c2)c1,-2.1,0.221
O=C1OC2(CCCC2)OC(=O)C1=Cc1c[nH]c2ccccc12,-0.2,/
COC(=O)c1ccc(CSc2nc(=O)n3cc(C)ccc3n2)o1,1.0,-0.476
Nc1nnc(SCC(=O)OCC(=O)Nc2ncc(Cl)cc2Cl)s1,2.6,/
O=c1[nH]c2ccccc2nc1C(F)(F)C(F)(F)C(F)(F)C(F)F,0.9,0.298
CC1(C)Cc2cccc(OCC(=O)N3CCN(S(=O)(=O)c4ccc(F)cc4)CC3)c2O1,-4.2,/
# (further entries)
SMILES,BasE inh,LANA-nucl inh
Cc1onc(-c2ccccc2)c1C(=O)OCCCn1c(=O)[nH]c2ccccc21,-2.0,/
O=C(CCn1c(=O)sc2ccccc21)Nc1ccccn1,6.0,0.202
O=C(/C=c1\[nH]c(=O)/c(=C\c2ccsc2)s1)c1ccco1,-2.9,/
Cc1ccc(C(C(=O)NC2CCCC2)N2CCN(C(=O)c3ccco3)CC2)cc1 (configuration not stated),1.3,0.449
COC(=O)c1c(C)nn(C(=O)c2cccs2)c1-c1snnc1C,0.7,/
c1ccc(-n2ncc3c(NCc4ccccn4)ncnc32)cc1,-3.9,/
Cc1ccc(C(C(=O)NC2CCCCC2)N(C(=O)Cc2c[nH]c3ccccc23)C2CC2)o1 (configuration not stated),0.1,-0.654
N#Cc1ccc(NC(=O)COC(=O)c2cccc(S(=O)(=O)N3CCCC3)c2)cc1,0.2,/
COc1nccc(C(F)(F)F)c1C(=O)NC(=O)Nc1c(C)cccc1C,2.7,/
CC(C)N1C(=O)CCC1C(=O)N1CCN(c2ccc(F)cc2)CC1 (configuration not stated),1.9,-1.07
O=C1NC(=S)N(c2ccc(Br)cc2)C(=O)/C1=C/c1ccsc1,4.3,/
CN(C)CCC(O)(CCc1ccccc1)c1ccccc1 (configuration not stated),-1.1,/
c1ccc(-n2nnnc2SCC2CCCCO2)cc1 (configuration not stated),-0.6,/
O=C(Oc1ccccc1N(C(=O)c1ccccc1)S(=O)(=O)c1ccccc1)c1ccccc1,-0.4,/
CN(C)C(Cl)=Nc1ccccc1,0.7,/
Cn1c(=O)c2c(-c3ccc(Cl)cc3)n(C3CCCCC3)cc2n(C)c1=O,-1.6,0.209
CCN(CC)c1ccc(NC(=O)c2oc3ccccc3c2COC)cc1,-3.5,/
CCN(CC)C(=O)CSc1nc(-c2ccccc2)c(-c2ccccc2)o1,-0.3,/
CN(C/C=C/c1ccccc1)Cc1cccc2ccccc12,-0.3,-0.768
NC(=O)CSC1=Nc2ccccc2C2=NC(CCC(=O)NCc3cccs3)C(=O)N12 (configuration not stated),0.9,0.453

# Gathered by group, the entries above with a Cl atom.
SMILES,BasE inh,LANA-nucl inh
Cc1nn(-c2ccc(Cl)cc2)c2sc(C(=O)NCCCN3CCCC3=O)cc12,1.2,/
O=C(COc1ccc(Cl)cc1Cl)Nc1ccc2nc3n(c(=O)c2c1)CCCC3,-2.6,-0.495
CCOC(=O)c1cnc2c(C)c(Cl)ccc2c1Nc1cc(C)ccc1OC,0.6,/
CC(C)C(=O)N1CCN(c2ccc(NC(=O)Cc3ccccc3)cc2Cl)CC1,1.9,-0.637
CC(C)CNC(=O)COc1ccc(Cl)cc1Cl,-0.9,-0.163
O=C(Cc1c(F)cccc1Cl)OCc1ncc(-c2ccccc2)o1,-0.3,/
CN1/C(=C\C(=O)c2nc(S(C)(=O)=O)ncc2Cl)C(C)(C)c2ccccc21,1.4,/
C=C(CC)C(=O)c1ccc(OCC(=O)O)c(Cl)c1Cl,-0.4&0.2,-0.298&-0.45&-0.97&0.173
Nc1nnc(SCC(=O)OCC(=O)Nc2ncc(Cl)cc2Cl)s1,2.6,/
CN(C)C(Cl)=Nc1ccccc1,0.7,/
Cn1c(=O)c2c(-c3ccc(Cl)cc3)n(C3CCCCC3)cc2n(C)c1=O,-1.6,0.209

# Additional structures follow:
SMILES,BasE inh,LANA-nucl inh
O=c1ccc(=O)n(CCO)[nH]1,2.6,/
O=C(O)c1ccc(CN2C(=O)c3ccc(C(=O)O)cc3C2=O)cc1,3.3,/
Cc1ccc(CC(C#N)Sc2nc3ccccc3o2)cc1 (configuration not stated),2.9,/
CN(c1ncnc2sc(-c3ccccc3)cc12)C1CCS(=O)(=O)C1 (configuration not stated),-0.3,/
CN1CCC(N(C)C(=O)c2cc3cc(Br)cc(Br)c3o2)CC1,3.0,/
O=C(NCc1nnc(SCc2ccc(Br)cc2)n1-c1ccc(F)cc1)c1ccco1,0.9,-0.508

# The list is partial; rates above refer to the full screens.
